Compound activity: PubChem BioAssay, National Center for Advancing Translational Sciences (NCATS)
Six1-Eya2 inh: inhibitors of human Six1/Eya2 interaction. Q15475+O00167. AlphaScreen GST-Six1/His-Eya2 binding, biochemical; active compounds read low; control for the full effect not named in the record. activity change, % (test concentration not listed). 0.56% of 360,000 active. AID 651725; in the data active = activity change below about -65%; inconclusive = about -30% to -65%; inactive = above about -30%; also: % is scaled to controls: 0 for no effect and ±100 for the full control effect
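Six1/Eya2 binding was read as AlphaScreen signal after compounds were pinned into GST-Six1 plus His-tagged Eya2 (5X stock 250/500 nM) in pH 8.0 Tris/NaCl/TCEP buffer, beads added, then incubated 1 h, 37 C, dark.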
gsp agonist: activates gsp, the McCune-Albright syndrome mutation; gsp mutant cells, cAMP HTRF, 30 min; control for the full effect not named in the record; Potency, µM (top dose mostly 76.9 µM), inactives show top-dose activation (cAMP increase), actives largely listed as activators; 0.13% of 340,000 active; active = well fitted activation curve with a large enough effect; inconclusive = small, poorly fitted or top-dose-only effect, or another doubt; inactive = no such curve, though single readings can be large or run the other way; cell line not stated here;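 also: phosphodiesterase inhibitor Ro 20-1724 added with compounds to block cAMP breakdown; potency is read from the fitted curve at half-maximal effect; nearly all actives have a fitted effect of over 60% in size; about a fifth of the inactives were tested at one dose only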
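Cells stably selected in G418 were plated at 2000/well, grown 16-24 hr, then given compounds in DMSO with the PDE inhibitor […] (300 uM solution added) for 30 min at 37C; cAMP was read by HTRF.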
D2 ag: agonists of human D2 dopamine receptor (beta-arrestin). P14416. DiscoveRx PathHunter D2 beta-arrestin, luminescence, 90 min; 100% = 57 uM dopamine signal. activation, % (no concentration beside the values). 0.084% of 360,000 active. AID 624465; in the data active = activation above about 40%; inconclusive = about 15% to 40%; inactive = below about 15%; also: compound concentration not given in the record; the text of the record calls up to 30% inactive
Target sequence (P14416 whole entry, looked up): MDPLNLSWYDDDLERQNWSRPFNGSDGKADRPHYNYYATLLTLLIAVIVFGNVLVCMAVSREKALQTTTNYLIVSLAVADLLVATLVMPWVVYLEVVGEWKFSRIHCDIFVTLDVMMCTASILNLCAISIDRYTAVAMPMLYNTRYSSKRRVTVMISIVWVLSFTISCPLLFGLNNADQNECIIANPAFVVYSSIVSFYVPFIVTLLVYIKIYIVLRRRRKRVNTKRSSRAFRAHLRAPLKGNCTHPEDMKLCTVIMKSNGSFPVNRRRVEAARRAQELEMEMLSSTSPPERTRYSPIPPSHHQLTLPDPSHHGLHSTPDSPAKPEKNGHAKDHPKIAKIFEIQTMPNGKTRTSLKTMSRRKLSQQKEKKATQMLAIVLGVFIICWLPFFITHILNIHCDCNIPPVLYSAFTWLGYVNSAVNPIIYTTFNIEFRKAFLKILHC
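DiscoveRx PathHunter D2 beta-arrestin cells (2,100/well) attached overnight, then compound-stimulated 90 min at 37 C in HBSS/10 mM HEPES/0.1% Tween-20 buffer; beta-galactosidase complementation read by luminescence after 1 h at ambient temperature. Dopamine 57 uM final (EC100) as control.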
CtBP-E1A blk: blocks the CtBP interaction with E1A; AlphaScreen GST-E1A/His-CtBP binding, 1536-well; active compounds read low; control for the full effect not named in the record; activity change, % (no concentration beside the values); 0.49% of 340,000 active; AID 651724; in the data active means activity change below about -65%; inconclusive means about -30% to -65%; inactive means above about -30%; also: % is scaled to controls: 0 for no effect and ±100 for the full control effect
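In 5 uL wells, 23 nL compound meets equimolar GST-E1A and His-CtBP (5X stock 125 nM each) for 2 h, 37 °C. Beads (5X, 50 ug/mL) then 1 h, 37 °C, dark.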
gsp antagonist: antagonists of gsp mutant (McCune-Albright syndrome). 0.4% of 340,000 active. gsp-mutant cells, cAMP HTRF, 30 min; control for the full effect not named in the record. Potency, µM (top dose mostly 76.9 µM), without a hit: at the top dose activity change, negative = inhibition, actives largely listed as inhibitors; active = falling curve of any shape with a large fitted effect; inconclusive = falling curve, mostly with a smaller effect; inactive = flat or rising curve; cell line not stated here;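 also: intracellular cAMP measured with PDE inhibitor Ro 20-1724 present during compound exposure; potency is read from the fitted curve at half-maximal effect; % is scaled to controls: 0 for no effect and ±100 for the full control effect; nearly all actives have a fitted effect of over 65% in size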
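G418-selected cells were plated in DMEM/10% FBS for 16-24 h at 37C, then treated with compounds plus the PDE inhibitor […] (300 uM solution added) for 30 min at 37C. Intracellular cAMP was measured by HTRF after 30 min lysis at room temperature.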
D2 potentiator: human D2 receptor positive allosteric modulation. P14416. DiscoveRx D2 beta-arrestin cells, luminescence, 90 min; 100% = 57 uM dopamine signal. potentiation, % (test concentration not listed). 0.23% of 360,000 active. AID 624464; active = potentiation of 50% or more; inconclusive = 30% to 50%; inactive = 30% or less;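 also: compound concentration not given in the record; tested on top of an EC20 dose of dopamine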
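PathHunter D2 cells, attached overnight at 37 deg C, received compound in DMSO plus dopamine at EC20 (50 nM final) for 90 min at 37 deg C. Beta-arrestin recruitment was read as luminescence after 1 h with detection reagent at ambient temperature.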
* hit, by the source's call; ? = inconclusive; . = no result given; [ ] = remark or other dose.

Under each structure: Six1-Eya2 inh	gsp agonist	D2 ag	CtBP-E1A blk	gsp antagonist	D2 potentiator
COc1ccc(C(=O)OCC(=O)Nc2sccc2C(N)=O)cc1OC
  -3.0	?	-1.0	-10.1	11.1%	29.4
Cc1ccc(C(=O)CSc2nnc(-c3snnc3C)n2C2CC2)cc1
  -1.1	6.4%[15.4 µM]	4.8	0.4	6.7%	-0.7
O=C(COC(=O)c1cc(=O)[nH]c2ccccc12)c1ccc(Br)cc1
  5.4	-4.5%[15.4 µM]	-0.9	6.3	?	-2.1
CCC(C(=O)NCCCN1CCN(CC)CC1)n1nc(C)n2c(cc3occc32)c1=O (stereo not given)
  0.3	12.0%	-8.9	0.3	8.1%	-16.7
Cc1ccc(NC(=O)COC(=O)c2cc(=O)c3ccccc3o2)c(Br)c1
  -1.5	-41.2%	-4.9	-16.4	3.8%	-4.2
CCOC(=O)C12CNC(=O)C(C(=O)OCC)(CNC1=O)C2
  0.2	11.1%	-2.9	4.4	4.7%	-7.9
CCOC(=O)C(=NCCCN(C)C)NNc1cc(C(F)(F)F)ccc1Cl
  -0.3	-0.4%	-0.4	-4.1	-0.9%	-6.2
CC(C)(C)OC(=O)N[C@H](Cc1ccccc1)C(=O)N1CCC(C(=O)O)CC1
  0.3	-11.0%	-1.8	10.5	-5.2%	-12.8
COc1ccc(Cl)cc1-c1nc(SCC(=O)NC2CC2)n[nH]1
  8.8	-3.2%[15.4 µM]	1.3	4.3	3.9%	-2.1
Cc1cccc(C)c1NS(=O)(=O)c1ccc2c(c1)NC(=O)CO2
  1.2	?	0.5	-0.3	-5.2%	-6.7
COc1cccc(NC(=O)NC2(C(=O)N3CCN(C)CC3)CCCCC2)c1
  4.5	17.8%	5.8	3.0	12.7%	-4.5
COC(=O)c1cn(C(=O)c2cccc(Br)c2)c2ccccc12
  0.0	-49.2%[inhibitor]	-3.0	2.1	-4.6%	-2.0
Cc1nnc(SCC(=O)Nc2cccc(Cl)c2)n1CC1CCCO1 (stereo not given)
  0.6	-37.3%[inhibitor]	4.5	2.1	-23.9%	0.8
CCn1c(=O)n(CC)c2cc(S(=O)(=O)Nc3ccccc3C)c(C)cc21
  2.2	-47.7%[inhibitor]	1.8	-5.8	-4.8%	-3.1
CCOc1cc(/C=C/C(=O)O)ccc1OCCOc1ccc(F)cc1
  -6.3	3.9%[15.4 µM]	0.1	11.8	?	-4.5
O=C(CCl)N(O)c1ccc(C=Cc2ccccc2)cc1
  -4.3	-30.4%[inhibitor]	-3.8	8.9	1.5%	-12.6
COCCN(C(=O)CSc1nnc(-c2ccncc2)n1C)c1c(N)n(CC(C)C)c(=O)[nH]c1=O
  1.4	-25.7%	1.3	7.1	7.1%	-2.8
CCOc1ccc(C2c3c(oc4ccccc4c3=O)C(=O)N2c2ccc(C)cn2)cc1OC (stereo not given)
  2.5	19.1%	1.3	2.8	-2.6%	0.5
Cc1cc(C)n(-c2nc(N(C)C)nc(N3CCOCC3)n2)n1
  5.9	12.2%	-4.2	3.6	10.5%	-12.9
CCc1ccc(C(=O)c2cc3ccc(O)cc3oc2=O)cc1
  5.3	11.0%[15.4 µM]	-1.0	15.9	-12.3%	-2.1

2 entries picked at random from the list so far:
Under each structure: Six1-Eya2 inh	gsp agonist	D2 ag	CtBP-E1A blk	gsp antagonist	D2 potentiator
COC(=O)c1cn(C(=O)c2cccc(Br)c2)c2ccccc12
  0.0	-49.2%[inhibitor]	-3.0	2.1	-4.6%	-2.0
COc1cccc(NC(=O)NC2(C(=O)N3CCN(C)CC3)CCCCC2)c1
  4.5	17.8%	5.8	3.0	12.7%	-4.5

The list continues.
Under each structure: Six1-Eya2 inh	gsp agonist	D2 ag	CtBP-E1A blk	gsp antagonist	D2 potentiator
Cc1ccc(S(=O)(=O)N2CCCCC2)cc1NC(=O)C1COc2ccccc2O1 (stereo not given)
  -2.7	-27.6%	0.7	0.7	.	-0.1
COc1ccc(N2CCN(C(CNC(C)=O)c3ccco3)CC2)cc1 (stereo not given)
  1.0	11.9%	-3.0	3.3	2.7%	-2.6
COc1ccc(NC(=O)CSc2nnc(-c3ccccn3)n2Cc2ccco2)cc1OC
  -0.7	4.4%	-0.8	0.9	11.0%	-8.0
CN(C(=O)C(Cl)Cl)C1CC2C=CC1C2 (stereo not given)
  -2.0	-22.2%	0.6	3.2	6.4%	-1.8
CCOc1ccccc1/C=C(\C#N)C(=O)Nc1cccc(C(=O)O)c1
  3.4	12.1%[15.4 µM]	-2.2	-1.7	?	3.6
O=C(Nc1ccc(NC(=O)c2cc3ccccc3o2)cc1)c1ccc2c(c1)OCCO2
  12.2	4.3%[15.4 µM]	-3.1	4.1	-11.0%	-1.4
CN(CC(=O)NCc1cccnc1)S(=O)(=O)c1cc(Cl)ccc1Cl
  1.3	10.0%	-2.1	13.2	-4.3%	-21.2
CCOC(=O)CSc1nnc2c3ccccc3n(C)c2n1
  0.0	2.2%[15.4 µM]	-2.0	2.2	3.7%	-8.7
O=C(NCc1cccc(Cl)c1)c1ccc(N2CC3CC(C2)c2cccc(=O)n2C3)c(NC(=O)c2cccnc2)c1 (stereo not given)
  -0.3	25.9%	-1.6	-6.8	?	-6.0
Nc1nc2ccc(OC(F)(F)F)cc2s1
  2.0	.	.	-0.1	-4.4%	.
O=C(CCc1nc2ccccc2c(=O)[nH]1)OCC(=O)c1cccc(Cl)c1
  9.4	18.8%	-7.4	2.7	-1.3%	-36.8
C=CCN(CC=C)C(=S)NC(=O)c1ccc(-c2ccccc2)cc1
  -3.3	-24.5%	-8.0	-11.2	2.1%	-13.3
O=C(c1cccc(C(=O)N2CCN(c3ccccc3F)CC2)n1)N1CCN(c2ccccc2F)CC1
  -3.0	-26.1%	-0.6	-2.7	-16.3%	-12.4
Cc1ccc(CNC(=O)[C@H](C)N2C(=O)N3CCc4c([nH]c5ccccc45)[C@@]3(C)C2=O)cc1
  -5.7	.	-2.2	4.7	-22.4%	-7.6
Cc1ccc2c(c1)N(CC(=O)N1CCC(O)CC1)C(=O)CO2
  13.6	1.3%[15.4 µM]	-2.7	5.1	2.7%	-2.2
COc1cc2[nH]c3c(=O)n(CCN4CCCCC4)cnc3c2cc1OC
  -3.0	-4.1%	-2.8	-10.7	-1.1%	-26.7
COc1ccc([N+](=O)[O-])cc1NC(=S)NC(NC(=O)C(c1ccccc1)c1ccccc1)C(Cl)(Cl)Cl (stereo not given)
  -8.2	-16.3%	1.4	-6.9	?	-23.2
Cc1ccc(-n2c(Cc3cccn3C)nnc2SCC(=O)Nc2nnc(C)s2)cc1
  ?	-50.1%[inhibitor]	-3.9	?	-9.6%	1.9
CCOc1ccc(NC(=O)Nc2ccon2)cc1
  0.3	6.8%	-0.3	3.7	12.4%	-7.2
CCN(c1cccc(C)c1)S(=O)(=O)c1ccc2c(c1)NC(=O)CCS2
  4.5	3.5%	0.6	-3.5	3.9%	0.8
COc1cccc(OC)c1C(=O)Nn1c(C2CCC2)nc2ccccc2c1=O
  -1.2	-6.8%	-5.5	2.5	-15.1%	-21.7
COC1=NC(=C(c2ccccc2)c2ccccc2)OC1=O
  2.6	-12.3%	-3.1	6.7	6.3%	-4.8
FC(F)(F)c1cc(Oc2ccccc2)nc(-c2ccccn2)n1
  3.0	16.9%	-2.2	-3.1	-3.1%	-0.9
CCN1C(=O)C(=O)N(CC(=O)c2[nH]c(C)c(C(C)=O)c2C)C1=O
  7.0	50.6%[15.4 µM]	-0.4	4.0	6.8%	-0.4
CC(=O)c1sc(N2CCOCC2)nc1-c1ccccc1
  1.4	1.5%[15.4 µM]	-0.2	1.4	1.3%	0.3
COc1ccc(C2CC(c3ccc(C)cc3)=NN2C(=O)c2ccccc2)cc1 (stereo not given)
  1.0	-22.8%	-5.8	.	0.1%	-15.7
COc1cccc(C(=O)Nc2ccc(S(=O)(=O)NCc3ccco3)cc2)c1
  -6.1	5.9%	0.1	-1.8	3.1%	-0.4
Cc1ccc(NC(=S)NCCSc2ccc(Cl)cc2)cc1
  0.1	3.0%[15.4 µM]	-0.7	2.0	-28.5%	-4.2
CCn1nc(NC(=O)C(C)(C)C)c2cc3cccc(C)c3nc21
  74.1	-2.6%	-0.6	69.8	?	-0.1
O=C(O)CCCCCNC(=O)/C(=C\c1ccco1)NC(=O)c1ccco1
  -1.0	0.7%	-1.0	.	8.8%	9.1
CCOC(=O)c1ccc(-c2n[nH]c(=O)c3ccccc23)cc1
  5.2	-4.1%	-2.7	0.9	-4.9%	-8.8
CCCCn1c(N)c(N(CC)C(=O)CSc2nnnn2-c2cc(C)ccc2C)c(=O)[nH]c1=O
  2.2	-2.0%	-4.5	7.4	6.6%	-2.4
Cc1cccc(NC(=O)NCc2ccccn2)c1
  1.3	-3.1%	-0.3	3.6	3.1%	8.9
N/C(COc1cccc(Cl)c1)=N\O
  13.6	2.6%[15.4 µM]	1.3	-1.7	0.7%	2.7
O=[N+]([O-])c1ccc(Cl)cc1Sc1ccccn1
  -2.9	-2.7%	1.1	-16.0	-6.1%	2.6
CC(C)(C)NC(=O)C(c1ccco1)N(Cc1ccc(F)cc1)C(=O)c1snc(C(N)=O)c1N (stereo not given)
  -0.7	13.3%	1.7	-1.8	-7.1%	4.8
CC(C)[C@H](NC(=O)c1ccccc1Cl)C(=O)OCC(=O)Nc1ccc(S(=O)(=O)N2CCOCC2)cc1
  -15.7	?	0.4	-14.2	-10.7%	-8.4
Cc1nc2cc3nc(C)sc3cc2s1
  3.0	-4.9%	-3.9	0.0	10.8%	-19.9
CSc1ccc(C2Nc3ccccc3-c3cc(C)nn32)cc1 (stereo not given)
  36.6	1.9%	-2.5	21.1	2.1%	-9.3
Cc1ccccc1N1C(=O)C(Oc2ccc(Cl)cc2)C1CNCCCOC(C)C (stereo not given)
  -14.1	3.9%[15.4 µM]	-0.6	-3.8	-15.9%	-17.1
Cc1cccc(C)c1NC(=O)COC(=O)c1ccccc1[N+](=O)[O-]
  8.1	2.5%	-2.8	-0.8	6.2%	9.3
Cc1ccc(S(=O)(=O)N2CCC(=O)N(CCOC(=O)NCc3ccccc3)CC2)cc1
  -0.2	-14.6%	0.7	7.7	3.1%	-8.0
CC(C)C[C@@]12C(=O)N(c3cccc(Br)c3)C(=O)N1[C@H](c1ccc(F)cc1)[C@@H]1C(=O)N(C3CCCCC3)C(=O)[C@@H]12
  -1.5	.	-2.2	1.7	-1.6%	-9.2
CCCSc1nc2cc(C)c(C)cc2n1CC(C)O (stereo not given)
  6.0	33.0%[15.4 µM]	-2.2	8.0	2.1%	-4.3
Nc1ccc(C(=O)OCC(=O)NC2CC2)cc1[N+](=O)[O-]
  10.8	-1.7%	-3.6	.	1.0%	-9.7
